MT1-MMP act inh: blockers of MT1-MMP proenzyme processing, primary screen, HT1080 RFP-PRO-GFP cells, GFP/RFP fluorescence; Matrix metalloproteinase-14 (Homo sapiens), P50281; GFP/RFP ratio fluorescence, overnight; percent of plate control window, DMSO zero; GFP/RFP ratio change, % at 20 µM; actives 0.061% (n = 360,000); AID 651647, 2012;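 active = GFP/RFP ratio change of at least 30% with cell ATP level not reduced by more than half and red fluorescence within 50% of control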; also: strong numbers were not always called active
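Compound: 20 µM single dose, 1% DMSO / System: HT1080 RFP-PRO-GFP cells / Controls: DMSO and RFP-L50D-GFP cell wells / Read-out basis: GFP/RFP fluorescence ratio / Schedule: overnight compound exposure at 37 °C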
CSC inhib: cancer stem cell viability inhibitors, primary screen, luminescence; AID 2717, 2010; actives 1.1% (n = 300,000); cancer stem cell-like cells viability; inhibition, % at 7.5 µM;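 active = mean at 75% or more and at least half the replicates too; tested in HMLE shEcad cells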;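 also: 0% = median of negative and 100% = median of positive control wells; the first replicate is given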
eIF4H inh: human eIF4H binding inhibitors, primary screen, translation initiation inhibitor project, biochemical, uHTS, fluorescence polarization. Eukaryotic translation initiation factor 4H (Homo sapiens), Q15056. eIF4H fluorescence polarization binding assay. inhibition, % at 35 µM. actives 0.94% (n = 290,000). AID 2012, 2009;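 active = 50% or more with normal probe brightness, or confirmed in later tests; about a fifth of its hits are not listed in these tables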;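 also: calls also rest on retests at 20 µM and on dose response follow-up; 0% = protein and probe with vehicle and 100% = probe without protein; strong numbers were not always called active; many hits fall short of the cut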
PABP FP inh: PABP poly(A) RNA binding inhibitors, primary screen, biochemical, fluorescence polarization, uHTS; inhibition, % at 35 µM; actives 1% (n = 290,000);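 active = 50% or more with normal probe brightness, or confirmed in later tests; about a fifth of its hits are not listed in these tables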;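 also: calls also rest on retests at 20 µM and on dose response follow-up; controls were probe without protein and protein plus probe with vehicle; some compounds called inactive have numbers as strong as hits; many hits fall short of the cut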
Target sequence (P11940 whole entry, looked up): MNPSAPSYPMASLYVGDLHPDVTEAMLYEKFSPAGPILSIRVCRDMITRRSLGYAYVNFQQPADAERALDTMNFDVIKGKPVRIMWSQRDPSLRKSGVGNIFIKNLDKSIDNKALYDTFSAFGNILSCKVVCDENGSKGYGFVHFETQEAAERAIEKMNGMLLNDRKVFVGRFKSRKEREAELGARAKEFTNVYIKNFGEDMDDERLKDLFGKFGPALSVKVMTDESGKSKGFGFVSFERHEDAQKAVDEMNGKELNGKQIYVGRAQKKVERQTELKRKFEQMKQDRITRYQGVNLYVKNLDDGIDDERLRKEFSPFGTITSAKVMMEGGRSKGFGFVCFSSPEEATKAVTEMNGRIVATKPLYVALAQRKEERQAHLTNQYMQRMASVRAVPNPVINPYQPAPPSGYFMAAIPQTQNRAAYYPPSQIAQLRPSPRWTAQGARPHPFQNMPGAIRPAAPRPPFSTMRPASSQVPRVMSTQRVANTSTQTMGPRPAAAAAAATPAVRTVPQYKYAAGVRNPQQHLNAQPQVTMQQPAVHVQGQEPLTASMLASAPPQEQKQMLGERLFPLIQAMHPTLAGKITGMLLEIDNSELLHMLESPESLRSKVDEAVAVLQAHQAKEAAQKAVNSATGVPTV
HIV Env fusion: inhibitors of HIV-1 Env-driven cell-cell fusion, primary screen, HeLa-JRFL effector, CEM21 target cells, luciferase; inhibition, % at 12.3 µM; actives 1.1% (n = 360,000); AID 651610, 2012;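 active = mean replicate inhibition score of at least 50 and every replicate individually at or above 50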;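 also: 0% = plate neutral controls and 100% = maraviroc near 300 nM; one replicate is shown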
Rce1 inh: yeast Rce1p protease inhibitors, primary screen, biochemical, fluorescence, cell-free homogeneous; CAAX prenyl protease 2 (Saccharomyces cerevisiae (strain ATCC 204508 / S288c)), Q03530; yeast membranes, quenched prenylated peptide cleavage fluorescence; calls only; actives 0.27% (n = 290,000); AID 2563, 2010;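 active = fall in fluorescence gain of 50% or more versus controls, with final raw signal at or below 3038400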;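 also: plate controls were neutral control wells for no effect and wells lacking membranes for full effect; tested at 10 µM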
Target sequence (Q03530 whole entry, looked up): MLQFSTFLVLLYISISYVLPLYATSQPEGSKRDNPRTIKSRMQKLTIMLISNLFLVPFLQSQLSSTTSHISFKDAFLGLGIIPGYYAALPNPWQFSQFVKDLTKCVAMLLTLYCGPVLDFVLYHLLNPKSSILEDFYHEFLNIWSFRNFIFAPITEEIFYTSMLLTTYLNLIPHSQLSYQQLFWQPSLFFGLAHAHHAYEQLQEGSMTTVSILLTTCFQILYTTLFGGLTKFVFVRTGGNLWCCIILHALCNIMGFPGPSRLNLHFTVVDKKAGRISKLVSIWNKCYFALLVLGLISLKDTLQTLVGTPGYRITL
Yeast UUG start: modulators of yeast start codon fidelity, primary screen, whole organism, S. cerevisiae, single point, plate reader | S. cerevisiae UUG-firefly luciferase reporter, luminescence/redox ratio | activity score, % at 18.7 µM | actives 0.13% (n = 350,000) | AID 602363, 2012;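 active = replicate mean at a twofold rise or more, about +100% in these data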;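 also: firefly luciferase made from a UUG start codon reports start codon fidelity; reporter light over untreated wells divided by growth signal over untreated wells; some hits fall short of that in this replicate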
eIF4H inh retest: recorded beside eIF4H inh, whose call it bears; inhibition, %; compound at 20 µM; confirmation average;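 mean of two retest wells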
PABP FP inh retest: further read-out of PABP FP inh, marked with its call; inhibition, %; compound at 20 µM; confirmation repeats;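 mean of two retest wells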
MT1-MMP act inh RFP: also measured in MT1-MMP act inh; calls as there; RFP signal change, %; measured here: RFP expression control read;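 0 = vehicle wells; hits needed this value within 50% of zero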
Active calls of the source: *; i = inactive; nt = not tested or not shown. Only part of the results is shown. The share of hits here may be higher or lower than overall.

SMILES | MT1-MMP act inh | MT1-MMP act inh RFP | CSC inhib | eIF4H inh | PABP FP inh | HIV Env fusion | Rce1 inh | Yeast UUG start | others
CN(C)C(=O)c1cc(Cl)ccc1Sc1cc(Cl)ccc1Cl | 6.7 | -4.5 | 20.2 | 60.3 | -4.2 | nt | i | 10.0 | eIF4H inh retest=-1.9;PABP FP inh retest=-4.3
C#CCOCCOCCOCCNc1nc(N2CCN(C(=O)[C@H](CCCN=C(N)N)n3cc(C(N)[C@@H](C)CC)nn3)CC2)nc(N2CCN(C(=O)[C@H](CCCCN)n3cc([C@@H](N)CC(N)=O)nn3)CC2)n1 (some centres not stated) | 5.0 | 2.5 | nt | nt | nt | -11.4 | nt | 47.3
Cc1ccc(-c2nnn(CC(=O)N(c3ccccc3F)C(C(=O)NC3CCCC3)c3ccco3)n2)o1 (configuration not stated) | -5.0 | 0.3 | -18.5 | -2.6 | -2.2 | nt | i | nt
CCOC(=O)C1(Cc2cccc(OC)c2)CCN(Cc2ccc(C)s2)CC1 | 0.6 | -7.8 | 9.3 | -2.4 | -9.1 | 15.9 | i | nt
Clc1ccc(C[n+]2csc3ccccc32)cc1 | -10.4 | -6.2 | 10.1 | 1.1 | -2.0 | 7.5 | nt | nt
COc1ccc(C2=NS(=O)(=O)N(C)C(C(=O)Nc3ccc(C(C)=O)cc3)=C2)cc1OC | 9.1 | -13.4 | -5.5 | -14.7 | 0.6 | 31.3 | i | -10.0
CC(=O)NCCNc1nc2cc(-c3cscc3C)sc2c(=O)n1C | 4.4 | 1.3 | nt | nt | nt | -5.0 | nt | -13.9
O=C(CCCN1C(=O)c2ccccc2C1=O)Nc1ccc2c(c1)OCCO2 | 4.4 | 8.3 | -16.1 | 1.6 | -11.2 | 2.1 | i | nt
CCOc1ccccc1N1CCN(C(=O)c2cc3cc(OC)ccc3[nH]2)CC1 | 0.5 | 3.1 | -0.5 | -8.4 | 3.8 | nt | i | -9.6
CC1(C)Cc2c(C#N)c(NCc3ccco3)nc(-c3ccco3)c2CO1 | -3.1 | 0.6 | 6.9 | 102.2 | 103.7 | nt | i | -27.2 | eIF4H inh retest=-5.3;PABP FP inh retest=5.0
CSc1ccc(N2CCN(CCCNC(=O)Nc3ccccc3F)CC2)cc1 | -4.6 | -0.2 | -3.6 | -5.7 | 4.9 | -37.8 | i | -22.0
Cc1ccc(N(CCC#N)C(=O)COC(=O)C2CCN(S(=O)(=O)c3ccc4c(c3)OCCO4)CC2)cc1 | 0.4 | -2.3 | -8.0 | nt | nt | 23.7 | i | 16.4
Cc1c(C(=O)Nc2ccc(S(=O)(=O)Nc3ncccn3)cc2)oc2ccccc12 | -2.1 | 2.3 | -16.7 | nt | nt | -3.1 | nt | -15.4
O=C(NNS(=O)(=O)c1ccc2ccccc2c1)NC1CCCCC1 | -0.1 | 5.3 | -2.2 | 1.6 | -3.9 | 10.7 | i | -12.3
CC1CC(C)CN(C(=O)COc2ccc(-c3nnco3)cc2)C1 (configuration not stated) | -1.7 | 3.6 | -15.4 | -6.7 | -10.9 | -82.3 | i | -24.0
O=C(CN1CCCC1)Nc1ccccc1C(=O)c1ccccc1 | -2.4 | 1.1 | 2.9 | -1.2 | -7.5 | -10.6 | i | nt
CCN(CC)CC(=O)N1c2ccccc2Sc2ccccc21 | -2.3 | -0.8 | -6.0 | 5.0 | -6.3 | 22.7 | i | -4.4
CC(C)C[C@H]1CNC(=S)N1C[C@H]1CCCN1C[C@H](Cc1ccccc1)N1C[C@H](Cc2ccc(O)cc2)N(CC2CCCCCC2)C1=S | -8.0 | -16.3 | nt | nt | nt | -12.7 | nt | -18.7
Cc1[nH]n(-c2cccc3ccccc23)c(=O)c1/C=N/NC(=O)c1cccc([N+](=O)[O-])c1 | 2.1 | -6.9 | 9.6 | 9.4 | 7.4 | 59.2* | i | -3.5
C/C(=N/NC(=O)c1ccccn1)c1ccc(O)cc1 | -1.6 | 0.9 | 23.4 | 1.8 | 7.2 | -52.8 | nt | -24.3
CCc1nnc2sc(-c3cc(-c4ccccc4)nc4ccccc34)nn12 | 0.3 | -0.2 | nt | -10.5 | -9.6 | nt | i | nt
O=c1[nH]c(/C=C/c2ccccn2)nc2ccccc12 | -3.7 | -4.6 | 9.6 | 3.2 | 4.9 | -22.0 | i | -9.4
COc1ccc(S(=O)(=O)N2Cc3ccccc3CC2C(=O)O)cc1OC (configuration not stated) | 0.0 | 7.0 | -5.7 | -10.9 | 9.3 | -7.1 | i | -7.8
CCn1c(NCc2ccccc2Cl)nc2ccccc21 | 3.3 | 3.0 | -9.4 | 12.7 | 7.4 | nt | i | -5.6

Ordered by SMILES length (smallest number first): part of the list above
SMILES | MT1-MMP act inh | MT1-MMP act inh RFP | CSC inhib | eIF4H inh | PABP FP inh | HIV Env fusion | Rce1 inh | Yeast UUG start | others
C/C(=N/NC(=O)c1ccccn1)c1ccc(O)cc1 | -1.6 | 0.9 | 23.4 | 1.8 | 7.2 | -52.8 | nt | -24.3
O=c1[nH]c(/C=C/c2ccccn2)nc2ccccc12 | -3.7 | -4.6 | 9.6 | 3.2 | 4.9 | -22.0 | i | -9.4
Cc1c(C(=O)Nc2ccc(S(=O)(=O)Nc3ncccn3)cc2)oc2ccccc12 | -2.1 | 2.3 | -16.7 | nt | nt | -3.1 | nt | -15.4

The listing continues.
SMILES | MT1-MMP act inh | MT1-MMP act inh RFP | CSC inhib | eIF4H inh | PABP FP inh | HIV Env fusion | Rce1 inh | Yeast UUG start | others
CCC(=O)Oc1ccc(/C(CC)=C(\CC)c2ccc(OC(=O)CC)cc2)cc1 | -3.3 | -10.5 | 56.2 | -1.3 | 20.8 | -18.4 | i | -19.8
CCNC(=S)Nc1ccc(Cc2nc3ccccc3[nH]2)cc1 | -0.9 | -0.6 | 1.5 | 2.1 | -6.7 | -6.2 | i | -26.8
C=CCC1NS(=O)(=O)OC(CCCC)C1O (configuration not stated) | 5.7 | 3.4 | -25.9 | 1.7 | -5.9 | -0.6 | i | -15.2
CN(Cc1nc2ccccc2c(=O)[nH]1)C(=O)c1cccc(S(=O)(=O)N2CCc3ccccc32)c1 | 2.5 | 1.0 | 23.8 | nt | nt | 11.9 | nt | -1.9
O=C(c1ccc(Br)c(S(=O)(=O)N2CCCCC2)c1)N1CCCCC1 | 3.0 | -11.4 | -0.5 | 10.3 | 0.7 | 11.3 | i | 9.5
Cn1c(=O)c(=O)n(C)c2cc(S(=O)(=O)CCC(=O)Nc3ccc(C(F)(F)F)cc3)ccc21 | 2.8 | 0.2 | -3.7 | 1.8 | 11.4 | 0.4 | i | -6.6
Fc1ccc(/C=N/Nc2nn[nH]n2)cc1 | 1.7 | 3.9 | 10.3 | -2.0 | 5.2 | 6.2 | i | nt
COc1ccc(NS(=O)(=O)c2cccc(NC(=O)C34CCC(CC3)C4)c2)cc1 | -0.5 | -14.9 | -1.6 | -8.2 | 5.7 | 19.9 | i | -0.9
c1ccc(-n2c(-c3ccco3)nnc2N2CCOCC2)cc1 | 1.5 | 8.7 | nt | -8.6 | -4.9 | nt | i | -7.1
COc1ccc(N(CC(=O)NCC2CCCO2)S(=O)(=O)c2ccc(C)cc2)cc1OC (configuration not stated) | 0.4 | 1.2 | 3.2 | -7.1 | -0.3 | -88.3 | i | -10.3
CC(=O)c1c(-c2ccc(C)cc2)nc2c3ccccc3ccn12 | -5.4 | -0.1 | -3.9 | -10.2 | 14.3 | 4.9 | i | nt
CC(=O)N1c2ccccc2-c2nc3ccccc3n2C1C (configuration not stated) | 3.0 | 0.9 | -9.5 | -4.1 | 6.6 | -4.3 | i | -10.7
CC(C)=CC(=O)N1CCC(N2CCC(C(=O)N3CCOCC3)CC2)CC1 | 2.1 | 2.4 | -22.2 | 42.9 | 15.8 | -7.2 | i | nt
CCC(C(=O)NCc1ccc(OC)cc1)n1nc(C)n2c(cc3occc32)c1=O (configuration not stated) | -2.3 | 5.3 | -20.3 | 3.5 | -3.7 | -31.0 | i | -7.7
O=Cc1sc(N2CCOCC2)nc1-c1ccccc1 | nt | nt | -5.7 | 1.1 | -10.1 | nt | i | nt
Cn1cnc2c(N3CCCCC3)nccc21 | 0.1 | 1.9 | 8.2 | -4.7 | -1.0 | nt | i | nt
COC(=O)c1cc(S(=O)(=O)N2CCCC2=O)c(Cl)cc1Cl | -5.9 | -0.6 | -6.7 | -1.5 | 7.5 | 1.7 | i | 5.0
O=C(N/N=C/c1cn(-c2ccccc2)nc1-c1cccnc1)c1ccc(F)cc1 | 2.1 | -1.1 | -17.8 | -5.4 | -8.4 | -19.5 | i | nt
CC(NC(=O)Cc1ccc(NC2=NC3CS(=O)(=O)CC3S2)cc1)c1ccccc1 (configuration not stated) | 1.2 | 2.0 | -3.0 | 3.5 | 2.5 | -6.2 | i | -15.6
COc1ccc(CN(CC(=O)NC2CCCC2)C(=O)CCC(=O)Nc2nccs2)cc1 | -0.6 | -0.4 | 10.8 | -0.4 | -1.1 | 10.6 | nt | -11.9
CC(C1CC2CCC1C2)n1c(COc2ccccc2F)nnc1SCC(N)=O (configuration not stated) | -1.7 | 0.9 | -22.3 | 2.3 | -0.1 | nt | i | -15.3
CC(=O)NC(c1ccc([N+](=O)[O-])cc1)c1c(O)ccc2ccccc12 (configuration not stated) | 0.8 | 1.1 | -11.7 | -9.5 | 1.7 | 27.7 | i | nt
C/C(NC(=O)c1cccc(F)c1)=C1/C(=O)C[C@@H]2[C@H]1C2(C)C | -0.5 | -3.8 | 92.4* | 1.9 | 4.0 | nt | i | nt
C=C/C(C)=C/CC1C(=C)CCC2C(C)(C(=O)O)CCCC12C (configuration not stated) | 1.2 | 3.3 | -8.0 | 7.8 | 19.8 | nt | i | -11.1
CC1Cc2ccccc2N1C(=O)CO/N=C/c1ccccc1OC(F)F (configuration not stated) | 3.7 | -1.1 | 4.9 | 5.7 | -4.2 | 21.0 | i | nt
Cc1nn(CC(=O)NCCCN2CC(C)CC(C)C2)c(=O)c2cccn12 (configuration not stated) | 0.6 | -1.8 | 3.8 | 28.2 | 3.3 | 13.9 | i | 7.0
CCOC(=O)c1c(N)sc(C(=O)Nc2ccc3c(c2)OCO3)c1C | -1.1 | -3.2 | 35.4 | -1.5 | -4.5 | -122.3 | i | -70.8
O=S1(=O)CCOC(CO)CN1Cc1ccc(Cl)c(Cl)c1 (configuration not stated) | 3.8 | 4.9 | nt | nt | nt | 31.1 | nt | 0.0
COCCN(CC(=O)Nc1cccc(C)c1C)C(=O)C1CCN(S(=O)(=O)c2ccccc2)CC1 | -0.6 | 1.7 | nt | nt | nt | -18.0 | nt | -33.8
CSc1ncc(C(=O)Nc2cccc(S(N)(=O)=O)c2)n1-c1ccccc1 | -0.5 | 1.0 | -6.4 | -14.7 | -2.7 | -1.7 | nt | -21.8
Cc1[nH]c(C)c(S(=O)(=O)N(Cc2ccccc2)C(C)(C)C)c1C(=O)N1CCCC1 | -1.4 | 2.1 | 7.0 | -13.0 | 3.9 | 29.6 | i | -3.9
O=S(=O)(NN=C1CCCCCC1)c1ccccc1 | 3.0 | 8.1 | nt | -7.4 | -8.6 | 2.7 | i | -15.7

Screens deposited in PubChem by several laboratories.
